Biofilm kill mix: mixtures killing C. albicans biofilm | C. albicans biofilm persisters + clotrimazole, fluorescence viability; primary screen in compound mixtures of four per well | inhibition, % at 7.6 µM | hit rate 0.02% among 120,000;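 active means inhibition above 30.3% in the primary screen of four-compound pools, then above 30% when the compound was retested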;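 further: compounds exposed to preformed 24 h biofilms for 48 h; the number belongs to the whole pool; some results filed as inactive read as strong as hits; inactives centre near 12; 0% = biofilm with clotrimazole alone and 100% = kill control; retested singly at about 60 µM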
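Assay system: C. albicans biofilms / Medium: RPMI/MOPS medium, pH 7.0 / Schedule: biofilm formation 24 h, compound exposure 48 h, 37 °C / Measured by: Alamar Blue fluorescence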
Starred values were filed as active, the others as inactive. A portion of the library; count on the stated rates, not on these rows.

SMILES	Biofilm kill mix
C(=C\c1nc(-c2ccccc2)no1)/c1ccccc1	18
COCCCNc1ncnc2c1sc1nc(-c3ccco3)c3c(c12)CC(C)(C)OC3	28
CCOC(=O)c1ccc(NC(=O)CN2C(=O)CSC(C)C2=O)cc1 (configuration not stated)	9
COCCN(C(=O)Cn1nnc2ccccc21)C(C(=O)NC1CCCC1)c1ccc(OC)cc1OC (configuration not stated)	15
O=C(C[n+]1cc(-c2ccccc2)n2c1CCC2)N1c2ccccc2Sc2ccccc21	17
COc1ccc(/C=C2\SC(=O)N(CC(=O)NNC(=O)c3ccccc3O)C2=O)cc1OC	22
COc1ccc(-c2cc(-c3n[nH]c(=S)n3-c3ccccc3OC)[nH]n2)cc1	15
COc1ccc(C(=O)NC2CCN(CC(=O)Nc3cccc(C)c3)CC2)cc1OC	13
O=C(c1ccccc1)c1c[nH]c(C(=O)NNc2ccccc2)c1	14
Cc1ccc(CN(Cc2cccnc2)C(=S)Nc2cc(Cl)ccc2C)cc1	6
O=C(CCc1ccc(S(=O)(=O)NC2CCCCC2)cc1)NCc1cccnc1	26
CCOC(=O)C1(Cc2cccc(OC)c2)CCN(C2CCOCC2)CC1	-2

Already shown: an excerpt of the list.
SMILES	Biofilm kill mix
COCCCNc1ncnc2c1sc1nc(-c3ccco3)c3c(c12)CC(C)(C)OC3	28
CCOC(=O)c1ccc(NC(=O)CN2C(=O)CSC(C)C2=O)cc1 (configuration not stated)	9
COCCN(C(=O)Cn1nnc2ccccc21)C(C(=O)NC1CCCC1)c1ccc(OC)cc1OC (configuration not stated)	15

The results go on.
SMILES	Biofilm kill mix
COCCn1c(N/N=C(C)/C=C/c2ccccc2)nc2c1c(=O)[nH]c(=O)n2C	20
C#CCNC(=O)C1=C[C@H](c2coc3ccccc3c2=O)C[C@H](OCc2ccc(CO)cc2)O1	17
COc1cc(C(=O)N2CCCc3ccccc32)cc(OC)c1OC	3
CCOC(=O)C1(CC2CCCCO2)CCN(Cc2cccnc2)CC1 (configuration not stated)	7
CCOC(=O)c1c(NC(=O)CSc2nc3nc(C)cc(C)n3n2)sc(CC)c1C	6
Cn1c(O)c(N=NC(=N)N)c2ccccc21	12
Cc1ccc(CNC(=O)CCC2CCCN(Cc3cc4ccccc4o3)C2)o1 (configuration not stated)	7
COCCN1Cc2cccc(C(=O)Nc3ccc(C)cc3)c2C1=O	14
Cc1ccc(NC(=O)N2CCCC(C(=O)O)C2)cc1 (configuration not stated)	12
O=C(CN1CCOc2ccccc21)NCc1ccccc1	13
Cc1c(NC(=O)CS(=O)(=O)c2ccccc2)c(=O)n(-c2ccccc2)n1C	19
COC(=O)C(C)NC(=O)c1ccc(C(C)(C)C)cc1 (configuration not stated)	12
CC(C)(C)c1ccc(C(=O)NCC(=O)O)cc1	21
C=C(C)Cn1c(N2CC(C)CC(C)C2)nc2c1c(=O)[nH]c(=O)n2C (configuration not stated)	14
CSc1ncccc1C(=O)OCC(=O)NC(C)C	18
C=CCSc1nnc(-c2cc(C(C)(C)C)nn2Cc2ccc(F)cc2)n1C	19
O=c1[nH]c(SCc2ccccc2)nc2ccsc12	4
O=C(Nc1nccs1)c1ccccn1	12
Cc1ccc(OCCCc2c(C)n[nH]c2C)cc1	15
C#Cc1ccc([C@@H]2C=C(C(=O)OCC=C)O[C@H](OCCCCO)C2)cc1	21
Nc1nc(SCC(=O)c2ccc([N+](=O)[O-])cc2)n[nH]1	5
CCO[C@@H]1OC(C(=O)NCc2ccccc2)=C[C@H](c2cn(C(C)=O)c3ccccc23)[C@H]1CCCO	20
CCn1c(CNc2ccc(F)cc2)nnc1SCC(=O)Nc1ccccc1OC	14
CC(C)CCNC(=O)c1cc([N+](=O)[O-])ccc1N1CCOCC1	16

Some values from the entries so far:
Value for CC(C)CCNC(=O)c1cc([N+](=O)[O-])ccc1N1CCOCC1 under Biofilm kill mix: 16
Value for CCO[C@@H]1OC(C(=O)NCc2ccccc2)=C[C@H](c2cn(C(C)=O)c3ccccc23)[C@H]1CCCO under Biofilm kill mix: 20
Value for O=C(Nc1nccs1)c1ccccn1 under Biofilm kill mix: 12

Carrying on:
SMILES	Biofilm kill mix
COc1cc(-c2[nH]ncc2CN(C)Cc2nonc2C)cc(OC)c1OC	8
COc1ccc(NC(=O)Cc2c(Sc3ccccc3)c3ccccc3n2C)cc1	17
O=C(CCc1[nH]c2ccccc2c1Sc1ccccc1)N(CCO)CCO	19
CCOC(=O)c1c(NC(=O)COC(=O)CCS(=O)(=O)c2ccc(C)cc2)sc(C)c1C	12
O=C(NC(=S)N1CCN(C(c2ccccc2)c2ccccc2)CC1)c1ccc(S(=O)(=O)N2CCOCC2)cc1	21
COc1cc(C(=O)NCC2(N3CCCCC3)CCCCC2)ccc1OCC(=O)N1CCOCC1	15
Cc1nnc(NC(=O)CCNC(=O)c2ccccc2Cl)s1	6
COc1ccc(-n2c(=O)c3ccccc3n(CC(=O)NC3CCCCC3)c2=O)cc1OC	15
Cc1cc(C)cc(NC(=S)N(CCCN2CCN(C)CC2)Cc2cccs2)c1	3
CCOC(=O)c1cnn(C(=O)c2ccccc2)c1N	6
CC(=O)c1cc(C#N)c(SCc2ccccn2)nc1C	7
CCOC(=O)CNC(=O)C(Cc1ccccc1)NC(=O)OCc1ccccc1 (configuration not stated)	16
CCOC(=O)C1CCN(C(=O)c2cc(C(C)(C)C)nn2Cc2ccccc2)CC1	24
CSc1cccc(NC(=S)NCCCO)c1	15
N=C1C(c2nc3ccccc3s2)=C(O)CN1C1CCCCC1	16
NNc1nc2sc3c(c2c(=O)[nH]1)CCc1ccccc1-3	22
CSc1nnc(C)c(=O)n1COC(=O)COc1ccccc1F	18
COc1ccc(CCNC(=O)C(C)SCc2ccccc2)cc1 (configuration not stated)	10
O=C(Cc1c(F)cccc1Cl)N(Cc1ccccc1)c1ccccn1	10
Cc1cccc(N(CC(=O)N/N=C/c2ccccc2C(=O)O)S(C)(=O)=O)c1C	6
Fc1ccc(-n2cc(-c3ccccc3)c3c(NN4CCOCC4)ncnc32)cc1	11
Cc1nc(/C(N)=N/OC(=O)c2ccccc2Cl)c(C(F)(F)F)o1	23
Cc1ccc2cccc(NC(=S)NC(=O)c3ccn(C)n3)c2n1	15
COc1ccccc1NC(=O)C(C)Sc1nnnn1C (configuration not stated)	9
O=c1[nH]c(O)c(/C=C2\C=Nc3ccccc32)[nH]1	14
O=c1[nH]c(=O)n(Cc2ccccc2)c2nc(-c3cccs3)n(CCO)c12	24
NC1=NC(=O)C(Cc2cccc(Cl)c2)S1 (configuration not stated)	13
Cc1ccc(C(=O)OCC(=O)NCCC2=CCCCC2)s1	18
CCCCC(=O)NCc1ccccc1Cl	1
Cc1cccc(-[n+]2c(-c3cccc(Br)c3)[nH]c3nc4ccccc4nc32)c1	20
CC(=O)Nc1ccc(N/C(C)=C/C(=O)c2cccnc2)cc1	7
O=C(NCc1ccc(F)cc1)c1c2c(nc3ccccc13)CCC2	3
COC(=O)CSc1nnc(CNC(=O)c2ccccc2F)n1-c1ccc(F)cc1	3
C=CCN(c1ccccc1)S(=O)(=O)c1ccc(Cl)c(C(=O)OCC(=O)c2[nH]c(C)c(C(C)=O)c2C)c1	17
O=C(O)CSc1ncnc2sc3c(c12)CCCC3	2
COc1cccc(-c2ccc(C#N)c(=O)[nH]2)c1	19
O=C(CSc1ccc(-c2ccccn2)nn1)N1CCCC1	10
CCn1c(CCC(=O)O)nc2cc(S(=O)(=O)N(C)C)ccc21	9
CCOc1ccc(C(=O)NCC(=O)OCC(=O)Nc2ccc(C)c(S(=O)(=O)N(C)C)c2)cc1	-2
CCOC(=O)c1c(-c2ccc(C)cc2)csc1NC(=O)C1CCCO1 (configuration not stated)	5
CNC(=S)N1CCN(C(=O)C2CCCO2)CC1 (configuration not stated)	4
CCC1=C2CC[C@H]3C(=O)N(C)C(=O)[C@H]3[C@H]2[C@@]2(Cc3ccccc3)C(=NCCOC)OC(=O)N2C1=O	19
COc1ccccc1C(=O)C1CCCN(C(=O)c2ccccn2)C1 (configuration not stated)	6
CCOc1ccc(Nc2nc(N)c([N+](=O)[O-])c(NCc3ccccc3)n2)cc1	13
CC(C)Oc1ccc(C(=O)/C(=C\c2cccs2)c2nc3ccccc3o2)cc1	17
Cn1nc(-c2ccccc2)cc1NS(=O)(=O)c1ccc(C#N)cc1	15
COc1ccc(N(CC2CO2)S(=O)(=O)c2ccccc2)cc1 (configuration not stated)	17
Cc1[nH]c2ccccc2c1SCC(=O)Nc1nccs1	17
COc1cc(/C=N/Nc2ccccn2)ccc1O	17
COc1cccc(CN2CCN(c3nc4nonc4nc3N3CCCCC3)CC2=O)c1	9
CN(Cc1cc2cc(F)ccc2[nH]1)Cc1nc(-c2cnccn2)no1	15
CCOc1ccc(OCC)c(S(=O)(=O)NNC(=O)c2c(C)nc3ccccn23)c1	12
Nc1cccnc1Oc1ccc(F)cc1F	21
CNC(=S)N(C)c1ccccc1	19
O=C(Cc1ccc(Cl)cc1)Nc1ccc(NC(=O)c2ccccc2)cc1	8
CCOc1ccc(S(=O)(=O)NCCC(=O)OCC(=O)N2CC(=O)Nc3ccccc32)cc1	12
NC1=NS(=O)(=O)NC1c1ccc(F)cc1 (configuration not stated)	-10
COc1ccccc1C1CCN(c2ccc(CO)cc2[N+](=O)[O-])CC1	19
COc1ccc(NC(=O)Nc2ccccc2SC)c(OC)c1	9
Cc1ccc(-c2nnc(-c3ccc4c(c3)OCO4)o2)cc1	12
Continued.
SMILES	Biofilm kill mix
CSc1ccc(CN2C(=O)NC3(CCCCCC3)C2=O)cc1	4
O=C1NC2(CCC3(CC2)OCCO3)NN1c1ccc(Cl)cc1	14
S=C(Nc1ccccc1Cl)N1CCCCCC1	16
COc1ccc(C2=NN(CN3C(=O)C(=O)c4ccccc43)C(c3cccc([N+](=O)[O-])c3)C2)cc1 (configuration not stated)	18
CCOC(=O)c1sc(NC(=O)COc2ncnc3ccccc23)c(C(=O)OCC)c1C	11
Cc1cc(N2CCN(Cc3nc(-c4ccc(F)cc4)oc3C)CC2)cc(C)n1	12
Cc1ccc[n+](CC(=O)Nc2cccc([N+](=O)[O-])c2)c1	7
CCN1C(=O)C(CC(=O)Nc2ccccc2)N(Cc2ccccn2)C1=S (configuration not stated)	16
O=C(N/N=C/c1cccc(OC(=O)c2ccco2)c1)c1ccc(F)cc1	8
CCC(CC)NCc1ccc2c(c1)c1ccccc1n2CC	13
Cc1ccc(S(=O)(=O)NC(C)(C)CN2CCC(Cc3ccccc3)CC2)cc1	17
COc1ccccc1C1CCN(c2ccc([N+](=O)[O-])c(OC)c2)CC1	10
Cc1csc(SCC(=O)Nc2cc(S(=O)(=O)N3CCOCC3)ccc2N2CCOCC2)n1	13
COc1ccccc1N/C=C(\C#N)c1nc2ccccc2[nH]1	29
COc1ccc(N(CC(=O)N2CCc3ccccc3C2)S(=O)(=O)c2ccccc2)cc1	23
Cc1ccc2ncnc(Nc3ccccc3)c2c1	7
COc1ccc(-n2c(C)nc3c(cnn3-c3ccccc3)c2=O)cc1	-4
CN(C)C(=O)/C(=C/c1cn(-c2ccccc2)nc1-c1cccc([N+](=O)[O-])c1)NC(=O)c1ccccc1	16
COc1ccc(N/N=C(/C(N)=O)C2=NC(C)(C)Cc3ccccc32)cc1	15
COc1cc(CNc2ncnc3c2[nH]c2ccc(C)cc23)cc(OC)c1	5
Nn1c(SCC(=O)Nc2ccc3c(c2)OCO3)nnc1C(F)(F)F	4
NC(=O)c1cc(-c2ccncc2)nc2ccc(Cl)cc12	-1
COc1ccc(OC)c(NC(=O)Nc2nnc(N3CCC(C)CC3)s2)c1	13
Cc1c(NC(=O)c2cccc(NS(C)(=O)=O)c2)c(=O)n(-c2ccccc2)n1C	27
CN(C)S(=O)(=O)c1cc(NC(=O)COC(=O)C2CSC3(C)CCC(=O)N23)ccc1Cl (configuration not stated)	11
COCCN(C(=S)Nc1ccc(C)c(C)c1)C(C)c1ccco1 (configuration not stated)	9
CC(C)c1ccc(/C=N\NC(=O)c2ccc(Cn3cccn3)o2)cc1	6
O=C(N/N=C/c1ccc2c(c1)OCO2)C(O)c1ccccc1 (configuration not stated)	-1
COC(=O)c1c(C)[nH]c(/C=N/Nc2ccccc2)c1C	-1
C#Cc1ccc([C@@H]2C=C(C(=O)OCC=C)O[C@H](OCC)[C@H]2CCCO)cc1	12
COc1ccc(S(=O)(=O)N2CCOCC2)cc1NC(=O)Cc1ccccc1Cl	24
Cc1cccc(OCC(=O)N2CCN(C(=O)c3ccco3)CC2)c1	14
Cc1nn(-c2ccccc2)nc1C(=O)NNC(=O)c1cccc2ccccc12	13
COc1cc(OC)c(NC(=O)C(=O)CC(=O)c2ccc(C)cc2C)cc1Cl	11
CCN1C(=O)/C(=C2/C=Cc3ccccc3N2CC)SC1=S	-1
CCCOc1ccc(C2c3c(oc4cc(C)c(C)cc4c3=O)C(=O)N2CCCN(C)C)cc1OCC (configuration not stated)	-3
CCC(C(=O)Nc1cc(C(=O)O)ccc1C)c1ccccc1 (configuration not stated)	6
CN1CCN(c2ccc(-c3ccc4ccccc4n3)cc2)CC1	-5
O=C(O)CNC(=O)/C=C/c1c(Cl)cccc1Cl	15
Cc1sc2c3ccsc3ccc2[n+]1C	15
NC(=O)CC(NC(=O)c1ccccc1)c1ccc(NC2CCCCC2)c([N+](=O)[O-])c1 (configuration not stated)	11
CS(=O)(=O)N1CCC(C(=O)Nc2cccc(Cl)c2)CC1	2
O=c1c2nnn(-c3ccccc3)c2ncn1C/C=C/c1ccccc1	15

Exported as a markdown table: part of the list above
| smiles | Biofilm kill mix |
| --- | --- |
| CCC(C(=O)Nc1cc(C(=O)O)ccc1C)c1ccccc1 (configuration not stated) | 6 |
| CN1CCN(c2ccc(-c3ccc4ccccc4n3)cc2)CC1 | -5 |
| O=C(O)CNC(=O)/C=C/c1c(Cl)cccc1Cl | 15 |
| Cc1sc2c3ccsc3ccc2[n+]1C | 15 |
| NC(=O)CC(NC(=O)c1ccccc1)c1ccc(NC2CCCCC2)c([N+](=O)[O-])c1 (configuration not stated) | 11 |
| CS(=O)(=O)N1CCC(C(=O)Nc2cccc(Cl)c2)CC1 | 2 |
| O=c1c2nnn(-c3ccccc3)c2ncn1C/C=C/c1ccccc1 | 15 |

Compound activity deposited in PubChem by PCMD.
